MT1-MMP act inh: blockers of MT1-MMP proenzyme processing, primary screen, HT1080 RFP-PRO-GFP cells, GFP/RFP fluorescence | GFP/RFP ratio fluorescence, overnight; percent of plate control window, DMSO zero | Matrix metalloproteinase-14 (Homo sapiens), P50281 | GFP/RFP ratio change, % at 20 µM | 360,000 tested, 0.061% active | AID 651647, 2012;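 active = GFP/RFP ratio change of at least 30% with cell ATP level not reduced by more than half and red fluorescence within 50% of control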; note: strong numbers were not always called active
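Test system: HT1080 cells expressing an RFP-PRO-GFP fluorescent reporter construct / Compound dosing: single-point 20 µM compound, 1% DMSO / Schedule: cells overnight before dosing, compound overnight, 37 °C, 5% CO2 / Evaluation: GFP/RFP fluorescence ratio / Control set: DMSO and RFP-L50D-GFP cell wells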
CSC inhib: cancer stem cell viability inhibitors, primary screen, luminescence; cancer stem cell-like cells viability; inhibition, % at 7.5 µM; 300,000 tested, 1.1% active; AID 2717, 2010;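 active = mean at 75% or more and at least half the replicates too; tested in HMLE shEcad cells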;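 note: 0% = median of negative and 100% = median of positive control wells; the first replicate is given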
UUG fidelity: modulators of yeast start codon fidelity, primary screen, whole organism, S. cerevisiae, single point, plate reader | 350,000 tested, 0.13% active | activity score, % at 18.7 µM | S. cerevisiae UUG-firefly luciferase reporter, luminescence/redox ratio | AID 602363, 2012;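 active = replicate mean at a twofold rise or more, about +100% in these data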;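 note: firefly luciferase made from a UUG start codon reports start codon fidelity; reporter light over untreated wells divided by growth signal over untreated wells; some hits fall short of that in this replicate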
Rce1 inh: yeast Rce1p protease inhibitors, primary screen, biochemical, fluorescence, cell-free homogeneous; CAAX prenyl protease 2 (Saccharomyces cerevisiae (strain ATCC 204508 / S288c)), Q03530; 290,000 tested, 0.27% active; yeast membranes, quenched prenylated peptide cleavage fluorescence; calls only;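 active = fall in fluorescence gain of 50% or more versus controls, with final raw signal at or below 3038400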;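 note: plate controls were neutral control wells for no effect and wells lacking membranes for full effect; tested at 10 µM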
eIF4H inh: human eIF4H binding inhibitors, primary screen, translation initiation inhibitor project, biochemical, uHTS, fluorescence polarization. Eukaryotic translation initiation factor 4H (Homo sapiens), Q15056. eIF4H fluorescence polarization binding assay. inhibition, % at 35 µM. 290,000 tested, 0.94% active. AID 2012, 2009;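 active = 50% or more with normal probe brightness, or confirmed in later tests; about a fifth of its hits are not listed in these tables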;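 note: calls also rest on retests at 20 µM and on dose response follow-up; 0% = protein and probe with vehicle and 100% = probe without protein; strong numbers were not always called active; many hits fall short of the cut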
HIV Env fusion: inhibitors of HIV-1 Env-driven cell-cell fusion, primary screen, HeLa-JRFL effector, CEM21 target cells, luciferase; inhibition, % at 12.3 µM; 360,000 tested, 1.1% active;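 active = mean replicate inhibition score of at least 50 and every replicate individually at or above 50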;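 note: 0% = plate neutral controls and 100% = maraviroc near 300 nM; one replicate is shown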
PABP polyA inh: PABP poly(A) RNA binding inhibitors, primary screen, biochemical, fluorescence polarization, uHTS | Polyadenylate-binding protein 1 (Homo sapiens), P11940 | inhibition, % at 35 µM | 290,000 tested, 1% active;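 active = 50% or more with normal probe brightness, or confirmed in later tests; about a fifth of its hits are not listed in these tables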;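 note: calls also rest on retests at 20 µM and on dose response follow-up; controls were probe without protein and protein plus probe with vehicle; some compounds called inactive have numbers as strong as hits; many hits fall short of the cut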
Target sequence (P11940 whole entry, looked up): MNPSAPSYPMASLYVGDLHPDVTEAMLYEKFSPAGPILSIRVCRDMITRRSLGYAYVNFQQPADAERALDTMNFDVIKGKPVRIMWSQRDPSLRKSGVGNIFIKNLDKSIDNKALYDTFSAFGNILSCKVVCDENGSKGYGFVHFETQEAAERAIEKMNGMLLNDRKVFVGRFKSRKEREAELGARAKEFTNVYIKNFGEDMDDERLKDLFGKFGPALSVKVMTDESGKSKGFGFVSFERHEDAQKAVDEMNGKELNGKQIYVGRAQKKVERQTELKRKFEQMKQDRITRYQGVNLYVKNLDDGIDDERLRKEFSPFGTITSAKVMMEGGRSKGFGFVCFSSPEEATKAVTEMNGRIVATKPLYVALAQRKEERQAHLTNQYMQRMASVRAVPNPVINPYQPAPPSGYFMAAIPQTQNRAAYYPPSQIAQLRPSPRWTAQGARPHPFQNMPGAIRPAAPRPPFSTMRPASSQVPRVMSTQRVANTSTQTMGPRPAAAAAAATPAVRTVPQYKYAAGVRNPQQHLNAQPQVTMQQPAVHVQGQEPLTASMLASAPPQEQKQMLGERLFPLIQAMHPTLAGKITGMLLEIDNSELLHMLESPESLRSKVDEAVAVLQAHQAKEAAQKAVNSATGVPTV
eIF4H inh retest: recorded beside eIF4H inh, whose call it bears; inhibition, %; compound at 20 µM; confirmation average;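 mean of two retest wells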
PABP polyA inh retest: also measured in PABP polyA inh; calls as there; inhibition, %; compound at 20 µM; confirmation repeats;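 mean of two retest wells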
MT1-MMP act inh RFP: second read-out of MT1-MMP act inh, no call of its own (marks repeat the call); RFP signal change, %; measured here: RFP expression control read;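 0 = vehicle wells; hits needed this value within 50% of zero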
Starred values were filed as active, the others as inactive; i = inactive; nt = no result given; + = active, no number; & = joins results of further samples; [ ] = another dose, or the depositor's remark.

SMILES	MT1-MMP act inh	MT1-MMP act inh RFP	CSC inhib	UUG fidelity	Rce1 inh	eIF4H inh	HIV Env fusion	PABP polyA inh	others
NC(=O)Cn1c(=O)n(Cc2ccco2)c(=O)c2c3c(sc21)CCCCC3	-1	6	-3	nt	i	98*	-3	50*	eIF4H inh retest=96*;PABP polyA inh retest=100*
Cc1ccccc1OCc1nnc(SCC(=O)Nc2ccc3c(c2)OCO3)n1C	-1	3	38	-10	i	7	42	-4
CCOc1ccccc1NC(=O)CCn1nc(C)c(S(=O)(=O)N2CCCCC2)c1C	-1	-1	-14	9	i	2	5	4
COc1cc(C2N(c3cc(C)on3)C(=O)C3CCCN32)cc(OC)c1OC (stereo not drawn)	0	-1	4	-20	i	7	-46	-2
CC(=O)N1CCN(C(=O)c2cc(-c3ccc(Cl)s3)nc3ccccc23)CC1	-3	-6	7	-8	i	nt	-7	nt
COc1ccc(N2C(=O)CC(N3CCC(O)(c4ccc(Br)cc4)CC3)C2=O)cc1 (stereo not drawn)	-4	-6	-10	1	i	-12	nt	-10
CCCN(CCC)S(=O)(=O)c1ccc(C(=O)O)cc1	4	4	-9	-26	i	-3	nt	4
Cc1cc(NS(=O)(=O)c2ccc(NC(=O)CSc3nc4ncc(Cl)cc4[nH]3)cc2)nc(C)n1	1	2	-12	-16	i	2	-2	10
CCCn1nnnc1NCc1ccccc1OCC	1	1	-22	-14	i	0	6	-7
CCOC(Cn1c(SCC(=O)Nc2cc(C)on2)nc2ccccc2c1=O)OCC	-8	-6	-3	-5	i	-16	5	2
O=C(NCc1ccc(F)cc1)c1ccc(S(=O)(=O)N2CCCCC2)cc1	1	-1	-18	-12	nt	nt	-22	nt
O=C(CO/N=C1\CCCc2nonc21)Nc1ccccc1Cl	2	0	-2	-25	i	-3	17	-6

Looked up one by one from the list above:
SMILES	MT1-MMP act inh	MT1-MMP act inh RFP	CSC inhib	UUG fidelity	Rce1 inh	eIF4H inh	HIV Env fusion	PABP polyA inh	others
Cc1cc(NS(=O)(=O)c2ccc(NC(=O)CSc3nc4ncc(Cl)cc4[nH]3)cc2)nc(C)n1	1	2	-12	-16	i	2	-2	10
NC(=O)Cn1c(=O)n(Cc2ccco2)c(=O)c2c3c(sc21)CCCCC3	-1	6	-3	nt	i	98*	-3	50*	eIF4H inh retest=96*;PABP polyA inh retest=100*
CC(=O)N1CCN(C(=O)c2cc(-c3ccc(Cl)s3)nc3ccccc23)CC1	-3	-6	7	-8	i	nt	-7	nt
CCCn1nnnc1NCc1ccccc1OCC	1	1	-22	-14	i	0	6	-7
COc1ccc(N2C(=O)CC(N3CCC(O)(c4ccc(Br)cc4)CC3)C2=O)cc1 (stereo not drawn)	-4	-6	-10	1	i	-12	nt	-10
O=C(NCc1ccc(F)cc1)c1ccc(S(=O)(=O)N2CCCCC2)cc1	1	-1	-18	-12	nt	nt	-22	nt

Next part
SMILES	MT1-MMP act inh	MT1-MMP act inh RFP	CSC inhib	UUG fidelity	Rce1 inh	eIF4H inh	HIV Env fusion	PABP polyA inh	others
COc1ccc(N2C(=O)CC(NCc3cccc(F)c3)C2=O)cc1 (stereo not drawn)	5	2	1	3	i	-5	nt	-9
Cc1cc(C(=O)Nc2cccc(C)c2C)n(-c2ccccc2)n1	-6	-1	-2	-6	i	4	6	5
O=C(CN1C(=O)C2CC=CCC2C1=O)Nc1nc2ccccc2[nH]1 (stereo not drawn)	-1	2	-8	-21	i	-4	-93	8
Cc1cc(OC(C)C(=O)NC(Cc2c[nH]c3ccc(O)cc23)C(=O)O)c2c(C)c(C)c(=O)oc2c1 (stereo not drawn)	1	6	1	-2	nt	33	nt	6
C/C(=N/OC(=O)c1ccccc1)c1oc(C)nc1C	-1	-5	-8	-7	i	9	13	3
Cc1ccc(O)c(CNc2cccc3cccnc23)c1	-7	6	20	nt	i	20	-4	18
CCc1ccc(S(=O)(=O)NCCc2cn3cccc(C)c3n2)s1	-1	2	-31	nt	i	-18	-1	8
Cc1ccc2nc(SC(C)C(=O)N3CC(C)OC(C)C3)[nH]c2c1 (stereo not drawn)	-2	0	-6	nt	i	-8	11	-1
Cc1ccc(CNC(=O)c2cc(C)nn2-c2ccccc2)cc1	-2	-5	6	nt	i	-8	-1	1
COC(=O)NNC(=O)c1ccccc1C	-2	0	2	-14	i	4	-7	7
Fc1ccccc1CCNc1nnnn1-c1ccccc1	8	-8	7	-15	i	-11	-34	-3
COc1ccc(NC(=S)NCC(c2ccco2)N2CCCC2)cc1 (stereo not drawn)	-2	7	-18	nt	i	11	2	-2
Cc1ccc(CNC(=O)C2(C)Oc3ccccc3NC2=O)cc1 (stereo not drawn)	5	0	-6	-12	i	-9	-76	6
Cc1nc2cc(C(F)(F)F)ccc2n1CCNc1nc(-c2ccc([N+](=O)[O-])c(Cl)c2)cs1	6	-2	27	-8	i	-12	1	-9
CCn1nnnc1-c1ccc(OC)c(S(=O)(=O)NCc2ccccc2)c1	-2	-1	-5	nt	i	-2	-20	-7
COCCNC(=S)N1CCC2CC1c1cc(-c3ccc4c(c3)OCO4)ccc12 (stereo not drawn)	0	-10	nt	-30	nt	nt	25	nt
COc1cccc(CN(C)C(=O)CCNC(=O)c2ccco2)c1	-2	0	nt	-7	nt	nt	1	nt
COc1ccc(-c2csc(Nc3ccc(S(N)(=O)=O)cc3)n2)cc1	0	-8	4	-9	i	-10	5	10
Cc1cc(C)nc(NC(=O)c2ccc([N+](=O)[O-])c(C)c2)n1	7	11	-5	-8	i	-12	22	7
COc1cccc(NC(=O)CNc2cc(S(=O)(=O)N3CCOCC3)ccc2N2CCCC2)c1	-3	1	2	-5	nt	nt	nt	nt
COc1cccc(NC(C(=O)Nc2cccc(C(C)=O)c2)c2ccccc2)c1 (stereo not drawn)	4	1	15	-9	i	-12	-24	1
O=C(Nc1ccccc1F)c1ccccc1-c1ccc(C(F)(F)F)cc1	1	0	-3	nt	i	-3	20	-5
O=C(/C=C/c1cccnc1)c1ccccc1O	-3	-5	-4	-23	i	8	-5	10
Cc1ccccc1OS(=O)(=O)c1cccc([N+](=O)[O-])c1	0	-3	nt	2	nt	nt	33	nt

Three structures from above, arranged by SMILES length, largest number first:
SMILES	MT1-MMP act inh	MT1-MMP act inh RFP	CSC inhib	UUG fidelity	Rce1 inh	eIF4H inh	HIV Env fusion	PABP polyA inh	others
Cc1cc(NS(=O)(=O)c2ccc(NC(=O)CSc3nc4ncc(Cl)cc4[nH]3)cc2)nc(C)n1	1	2	-12	-16	i	2	-2	10
CC(=O)N1CCN(C(=O)c2cc(-c3ccc(Cl)s3)nc3ccccc23)CC1	-3	-6	7	-8	i	nt	-7	nt
Cc1ccc2nc(SC(C)C(=O)N3CC(C)OC(C)C3)[nH]c2c1 (stereo not drawn)	-2	0	-6	nt	i	-8	11	-1

Further structures.
SMILES	MT1-MMP act inh	MT1-MMP act inh RFP	CSC inhib	UUG fidelity	Rce1 inh	eIF4H inh	HIV Env fusion	PABP polyA inh	others
CCc1ccc2c(COC(=O)c3n[nH]c4ccccc34)cc(=O)oc2c1	4	-2	-8	9	i	1	-26	-3
CCc1ccccc1NC(=S)NN	nt	nt	23	nt	i	-6	-16	-3
O=C(c1cc(-c2ccc(Cl)c(Cl)c2)on1)N1CCN(c2ccccc2)CC1	2	-2	7	nt	i	-9	1	4
O=C(O)CCN1C(=O)/C(=C\c2cccc(OCc3ccccc3)c2)SC1=S	4	6	8	6	i	12	-11	13
Cc1cc(=O)n2c(n1)SCOC2	2	3	-12	0	i	-4	3	2
N/C(=N\OC(=O)c1ccc(F)cc1)c1ccccc1	-5	-1	-1	-28	i	-3	-191	-1
COc1ccccc1-c1ccc2c(c1)O[C@@H](CN(C)C(=O)c1ccncc1)[C@H](C)CN([C@@H](C)CO)S2(=O)=O	3	4	nt	-8&-3&67	nt	nt	-46&-13[16.7 µM]	nt
CCc1ccc(NC(=O)CN2C(=O)COc3ccc(S(=O)(=O)N4CCCC4)cc32)cc1	-1	0	-26	-11	i	-2	-9	0
CN(C)c1ccc(-c2nnc(-c3ccc(S(=O)(=O)C(F)F)cc3)o2)cc1	-5	-8	8	-25	i	68*	nt	74*
CCC(CO)Nc1ncnc2c1cnn2-c1ccc(Cl)cc1 (stereo not drawn)	6	0	-1	-36	i	-2	-91	62	eIF4H inh retest=-9;PABP polyA inh retest=10
CCn1cnc2c1c(=O)[nH]c(=O)n2Cc1ccccc1	3	5	-2	1	i	-5	nt	9
O=C(NN=C1CCCCC1)c1ccccc1-n1cccc1	-1	-1	2	-13	i	-11	nt	-9
Cc1cccc(N2CCN(C(=O)c3ccc4c(c3)OCCO4)CC2)c1C	3	-2	0	1	i	2	25	15
CCCCCCOc1ccc(NC(=O)CC2C(=O)N(CC)C(=S)N2Cc2ccco2)cc1 (stereo not drawn)	-13	-22	11	nt	i	-3	-11	16
Cc1cnc(NC(=O)Nc2ccc(Cl)cc2)s1	-12	-11	29	-14	i	-9	-43	-14
CC1=C(C)C(C)=C(C#N)C(=C(C#N)C#N)N1	-13	-1	-11	-23	+	8	5	6
COc1cc(/C=N/NC(=O)C(=O)/C=C2\NC(C)(C)Cc3ccccc32)ccc1O	-6	3	41	nt	i	7	-3	16
CCCCNC(=O)CSc1nc2ccccc2c(=O)n1C1CCCC1	5	10	-15	40	i	-7	16	4
COc1ccc(C)cc1N(CC(=O)NCCSCc1ccco1)S(=O)(=O)c1ccc(C)cc1	-6	-10	45	7	i	-10	29	12
Cc1onc(C(=O)NCCc2ccccc2)c1[N+](=O)[O-]	2	1	-9	2	i	-11	-2	-7
CCOc1ccc(N/C(=N/c2nc(C)cc(C)n2)NC(=O)CC)cc1	4	3	-3	nt	i	-9	8	-1
O=S(=O)(c1ccccc1)N1CCN(C(=S)Nc2ccccc2Cl)CC1	2	1	-2	-24	i	5	5	-2
CCCCN(C)CCNC(=O)c1nn(-c2ccc(OC)cc2)c(=O)c2c1c1ccccc1n2C	-6	-8	-8	-4	i	4	-10	0
CSc1nnc(-c2cccs2)n1C	-3	4	-13	nt	i	-2	10	1
CSc1nsc(SCC(=O)Nc2nc3ccc(C)cc3s2)n1	2	5	1	nt	i	-6	-24	0
Cc1cccnc1Nc1ncnc(N)c1[N+](=O)[O-]	2	2	-13	nt	i	-4	-12	-12
COc1ccc(CCN2C(=O)CSC2=S)cc1OC	20	27	25	-17	i	-1	-1	-5
O=C1NC(=O)/C(=C/c2cccc3ccccc23)S1	6	-8	18	-21	i	-1	1	0
